Screening results: PubChem, ICCB-Longwood Screening Facility, Harvard Medical School
Sa ugtP lethal – growth inhibition of S. aureus ugtP deletion strain; growth inhibition, % (concentration not given with the values); 0.54% of 330,000 active; S. aureus RN4220 ugtP deletion, OD600 growth, 16 h; some inactives read as strong as hits;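 active = z-score under -3 and OD600 up to 0.15 on both plates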;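 note: plate controls were untreated wells for no effect and antibiotic for full effect; wells of about 80 µL received 100 nL stock; the first replicate is given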
Sa RN4220 lethal – S. aureus RN4220 growth inhibition; OD600, 16 h; inhibition, % (test concentration not listed); 0.33% of 330,000 active; AID 1259311;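 active = z-score of -3 or lower and OD600 up to 0.18 on both plates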;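 note: plate controls were untreated cells for no effect and reference antibiotic for full effect; stock transfer was 100 nL into about 80 µL; one replicate is shown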
An asterisk follows results filed as active. Only part of the results is shown. The share of hits here may be higher or lower than overall.

SMILES	Sa ugtP lethal	Sa RN4220 lethal
O=C(NCC1CCCO1)c1ccc(C=NO)nc1 (stereo unspecified)	0	-3.3
COc1ccc(S(=O)(=O)ON=C2CCCc3ccccc32)cc1	1	6.6
Clc1ccc(-c2ccc(C=NNc3nncc(-c4ccccc4)n3)o2)cc1	2	5.8
COc1cc(C=NN2CCN(C3c4ccccc4-c4ccccc43)CC2)cc(OC)c1OC	-2	-6.3
COc1cccc(C=NNc2nc(Nc3ccccc3)nc(-n3nc(C)cc3C)n2)c1O	-1	8.7
CCNC(=O)ON=C(C)c1sc(-c2ccccc2)nc1C	-6	8.4
Cc1nc2ccccc2c(=O)n1N=Cc1cn(-c2ccccc2)nc1-c1cccs1	13	-4.8
Cc1ccccc1C(=O)ON=C1CCS(=O)(=O)c2sccc21	2	0.3
COc1ccc(C=NNS(=O)(=O)c2ccc(Cl)cc2)cc1COc1ccccc1[N+](=O)[O-]	18	15
C=CCc1c(C)nc(C)nc1NN=Cc1ccc(F)cc1	6	0.4
C(=NNc1nc(-c2ccccc2)cs1)c1cccs1	15	-1.9
NC(=NO)c1nc(N2CCCC2)nc(N(c2ccccc2)c2ccccc2)n1	15	9.7
CCOC(=O)C=c1sc(=C(C#N)C(=O)OCC)n(-c2ccccc2)c1=O	-3	-0.5
O=C(CC=NOCc1ccccc1F)c1cnc(-c2ccc(Cl)cc2)s1	8	0.6
Cc1[nH]n(-c2ccc(F)cc2)c(=O)c1C=Nc1sc2c(c1C#N)CCCC2	0	1.9
Cc1ccc(C=NNC(=O)Cc2c[nH]c3ccccc23)c(C)c1	-10	-12
CC(=NNC(=O)c1ccco1)c1cccc(NC(=O)c2ccc(C)o2)c1	-1	-3.4
CCCCOc1ccc(CNC(=S)NN=Cc2ccc(OC)c(OC)c2)cc1	34	-3.5
CS(=O)(=O)N(CC(=O)NN=Cc1cc([N+](=O)[O-])ccc1Cl)c1ccccc1	-2	4.4
COc1ccc(OC)c(C=NNC(=O)CSc2nnc(C)n2-c2ccccc2)c1	5	5.6
Cc1[nH]n(-c2ccccc2)c(=O)c1C=Nc1ccccn1	-6	0.8
CCOC(=O)COc1cc(Br)c(C=NNc2ccccc2)cc1OC	8	2.5
CCCc1nc2ccccc2c(=O)n1N=Cc1c(C)[nH]n(-c2ccc(C)cc2)c1=O	4	16
CC(=NNC(=O)c1ccc(C)s1)c1cccc(NC(=O)COc2ccc(Cl)cc2C)c1	1	0.6
N#CC(=NNc1ccc(Cl)cc1)C(=N)N1CCCCC1	-12	-2.5

Continued, starting with the last 4 of the part before.
SMILES	Sa ugtP lethal	Sa RN4220 lethal
CCOC(=O)COc1cc(Br)c(C=NNc2ccccc2)cc1OC	8	2.5
CCCc1nc2ccccc2c(=O)n1N=Cc1c(C)[nH]n(-c2ccc(C)cc2)c1=O	4	16
CC(=NNC(=O)c1ccc(C)s1)c1cccc(NC(=O)COc2ccc(Cl)cc2C)c1	1	0.6
N#CC(=NNc1ccc(Cl)cc1)C(=N)N1CCCCC1	-12	-2.5
COc1ccc(C=NNS(=O)(=O)c2ccccc2)cc1OC(=O)c1ccc(C)cc1	4	9.0
Cc1ccccc1Cn1cc(C=Nn2cnnc2)c2ccccc21	-5	-7.4
COc1ccccc1-c1cc(C(=O)NN=Cc2sccc2C)c2ccccc2n1	6	-4.1
N#CC(=C(O)CN1CCOCC1)c1nc2ccccc2s1	0	2.8
Cc1ccc(S(=O)(=O)ON=C2CCCc3occc32)cc1	-5	-2.8
COc1ccc(C=NNC(=O)c2ccoc2C)cc1COc1c(C)cccc1C	-13	-9.2
CSCCC(C(O)=C(C#N)c1nc2ccccc2[nH]1)N1C(=O)c2ccccc2C1=O (stereo unspecified)	-1	2.4
O=C(NCCCNCc1ccccc1)C(=NO)c1ccccc1	12	3.0
O=C(NCc1ccccn1)C(=NO)c1ccccc1	4	-2.8
CC(=NNC(=O)c1cccs1)c1ccco1	-5	6.3
Cc1ccc(S(=O)(=O)NN=Cc2cnn(C)c2C)cc1	-1	-1.2
O=C(C=NO)NCc1ccncc1	-1	-0.6
Cc1ccccc1NC(=O)CC1SC(=Nc2nccs2)N(C)C1=O (stereo unspecified)	1	-0.8
CCOc1ccc(C=Nn2c(SC)nnc(C(C)(C)C)c2=O)cc1	12	0.8
O=C(NN=Cc1ccc([N+](=O)[O-])o1)c1cc(-c2cccc(Br)c2)nc2ccccc12	100*	115*
COc1cccc(C=NNC(=O)c2ccc(-c3ccccc3)cc2)c1O	19	14
Cc1nn(-c2ccccc2)c(N2CCCC2)c1C=NNC(=O)c1ccccc1O	16	8.9
COc1ccc(Br)cc1C(C)=NNC1=NCCN1	-2	2.1
CC1(C)S/C(=N/N=Cc2cccs2)NC1=O	7	0.7
C/C(O)=C/c1nc2ccccc2oc1=O	19	14
COc1cc(C=Nn2c(C)nnc2C)cc(OC)c1OC	1	-1.9
Cn1c2c(c3ccccc31)CCC2=NO	10	3.0
CC1CCN(S(=O)(=O)c2ccc(NN=C(C#N)C(N)=O)cc2)CC1	-9	-2.4
COc1ccc(S(=O)(=O)NN=C(C)c2cccc(NC(=O)c3ccccc3Cl)c2)cc1	4	-1.9
O=S(=O)(NN=C/C=C/c1ccccc1)c1ccc(Br)cc1	4	3.7

The results go on:
SMILES	Sa ugtP lethal	Sa RN4220 lethal
CCc1ccccc1N(CC(=O)NN=Cc1ccc(OC(=O)OC)c(OC)c1)S(C)(=O)=O	-2	-1.4
CCn1cc(C=NNC(=O)c2ccc3c(c2)OCO3)c(C)n1	8	7.6
CN(N=Cc1ccncc1)C1=NS(=O)(=O)c2ccccc21	7	0.5
Cc1cc(C)cc(Oc2ccccc2C=NO)c1	87*	-2.8
Cc1ccc(C=NNC(=O)c2csnn2)cc1	1	-1.2
CC(=O)N(N=C1Sc2ccccc2C1=O)c1cccc(C)c1	-4	-0.3
CC(=NNc1ccccc1)C(=NO)C(=O)Nc1ccccc1	-4	1.7
COc1cccc(C=NNc2snc(SC)c2C#N)c1O	96*	96*
COc1ccc(C=NNC(=O)c2ccccc2O)cc1Cn1cc(Cl)cn1	-5	1.5
CCC12CN3CCN(CC(C3)C1=NO)C2	-3	-1.2
Cc1ccc(C(=O)NN=Cc2ccc(-c3ccccc3[N+](=O)[O-])o2)cn1	-5	1.6
Cc1cccc(OCC(=O)NN=C/C=C/c2ccc3c(c2)OCO3)c1C	13	-8.4
O=C(Cc1ccccc1)NN=C/C=C/c1cccc([N+](=O)[O-])c1	6	0.2
Cc1ccc(C=Nc2sc3c(c2C#N)CCC3)s1	6	4.7
Cc1ccccc1NC(C)C(=O)NN=Cc1ccccc1OCc1cccc(Br)c1 (stereo unspecified)	-8	-0.4
COc1cc(C=NNc2cc(=O)n(C)c(=O)n2C)ccc1O	8	0.0
COc1cccc(C=NNC(=O)CSc2nnc(C)n2-c2ccccc2)c1OC	8	3.4
CC(=NNC(=O)c1c(Cl)cnn1C)c1cccc(NC(=O)COc2ccccc2)c1	-4	4.5
COc1cc(C=NNC(=O)c2cnn3c(C)cc(-c4ccccc4)nc23)ccc1O	-1	1.1
Cc1nn(C)cc1C=NNC(=O)c1ccc2c(c1)OCO2	-2	-3.7
Cn1ncc(C#N)c1N=CN1CCOCC1	4	-2.3
COc1ccc(C(=O)C(C#N)=NNc2ccccc2[N+](=O)[O-])cc1	8	15
CCCCCOc1ccc(C=NNC(=O)c2nnn(-c3nonc3N)c2CN2CCCCCC2)cc1	12	3.3
O=C1NC(=O)N(CCNc2ncc(C(F)(F)F)cc2Cl)C(=O)C1C=NOCc1c(F)cccc1Cl (stereo unspecified)	-1	9.5
O=C(NCc1ccccn1)c1ccc(C=NO)nc1	6	6.9

Continued.
SMILES	Sa ugtP lethal	Sa RN4220 lethal
C(=NN1CCN(C2c3ccccc3-c3ccccc32)CC1)c1ccncc1	-1	-4.2
C=CCc1ccc(OCCOc2cccc(C=Nn3cnnc3)c2)c(OC)c1	-8	-4.1
CN(C)c1ccnc(-n2cccc2C=NOCc2ccc(F)cc2Cl)c1C#N	12	10.0
CCc1n[nH]c2c1C(=NO)CC(C)(C)C2	-3	5.6
CC1CC(=NO)C(C)CN1 (stereo unspecified)	-5	-2.7
Cc1ccc(NS(=O)(=O)c2cccc(C(=O)NN=Cc3ccc4c(c3)OCCO4)c2)c(C)c1	-3	2.2
COc1ccc(OCCn2c(C)c(C=Nn3cnnc3)c3ccccc32)cc1	-8	2.6
O=C(C=NO)NCC1CCNCC1	4	-1.9
CCCn1c2ccc(C(C)=NO)cc2c2cc(C(C)=NO)ccc21	-12	5.4
COC(=O)C=c1sc(=C(C#N)C(=O)NCc2ccco2)n(-c2ccc(C)cc2)c1=O	7	-3.6
CCOc1c(Cl)cc(C=NO)cc1OC	9	-0.5
COc1cccc(C(=O)ON=Cc2ccc(Sc3ccc(C)cc3)nc2)c1	8	0.5
COc1ccc(C(C)=NNC(=O)c2nc(C)cc(C)n2)cc1	10	6.3
CC(NC1CCCCC1)=C(C#N)C(=O)NCCN1CCOCC1	4	4.2
CC(Cc1ccccc1)=NNC(=O)CCCCCC(=O)NN=C(C)Cc1ccccc1	1	0.5
O=C(NN=C/C(Cl)=C/c1ccccc1)c1cnccn1	0	-0.4
Cc1nnc(SCc2ccc(F)cc2)n1NCC=Cc1ccccc1	-5	5.2
CCNC(=O)ON=C(C)c1sc(-c2ccc(Cl)cc2)nc1C	-16	7.9
COc1ccc(C=NNC(=O)c2cc(C)on2)c2ccccc12	0	-1.5
COc1ccc(C=Nn2cnnc2SCc2ccccc2)cc1	-8	2.9
COc1ccc(C(=O)Nc2cccc(C(C)=NNC(=O)c3ccc([N+](=O)[O-])cc3)c2)cc1OC	3	-1.4
COc1cccc(C=NNC(=O)c2c(-c3ccccc3)noc2C)c1O	-1	-3.5
O=C(NCc1ccncc1)C(=NO)c1ccccc1	6	0.9
CS(=O)(=O)N(CC(=O)NN=Cc1cc2c(cc1Br)OCO2)c1ccccc1Br	-2	0.0
COc1ccc2nc(N=C(N)NC(=O)C(C)(C)C)nc(C)c2c1	-4	-2.1

Structures above that contain a tert-butyl group (2):
SMILES	Sa ugtP lethal	Sa RN4220 lethal
CCOc1ccc(C=Nn2c(SC)nnc(C(C)(C)C)c2=O)cc1	12	0.8
COc1ccc2nc(N=C(N)NC(=O)C(C)(C)C)nc(C)c2c1	-4	-2.1

Three entries drawn at random from the list so far:
SMILES	Sa ugtP lethal	Sa RN4220 lethal
C(=NN1CCN(C2c3ccccc3-c3ccccc32)CC1)c1ccncc1	-1	-4.2
C=CCc1ccc(OCCOc2cccc(C=Nn3cnnc3)c2)c(OC)c1	-8	-4.1
CN(C)c1ccnc(-n2cccc2C=NOCc2ccc(F)cc2Cl)c1C#N	12	10.0

The main list resumes with the three entries that preceded the break.
SMILES	Sa ugtP lethal	Sa RN4220 lethal
O=C(NCc1ccncc1)C(=NO)c1ccccc1	6	0.9
CS(=O)(=O)N(CC(=O)NN=Cc1cc2c(cc1Br)OCO2)c1ccccc1Br	-2	0.0
COc1ccc2nc(N=C(N)NC(=O)C(C)(C)C)nc(C)c2c1	-4	-2.1
O=S(=O)(NN=Cc1c(F)cccc1Cl)c1ccccc1	-9	2.7
COc1ccc(C=NNC(=O)c2ccccc2)cc1CN1CCN(c2ccc(F)cc2)CC1	1	7.9
O=C(NN=Cc1cc2c(cc1Cl)OCO2)c1ccncc1	3	3.9
COc1ccc2c(c1)c1ncnc(N3CCN(Cc4ccc5c(c4)OCO5)CC3)c1n2C	11	-0.3
CON=Cc1ccc(Sc2ccccc2N)c([N+](=O)[O-])c1	0	-0.5
C=CCn1c(=C(C#N)c2nc3ccccc3n2C)sc(=Cc2cc(OC)c(OC)c(OC)c2)c1=O	5	6.6
Cc1ccc(S(=O)(=O)/N=S(\C)c2ccccc2)cc1 (stereo unspecified)	0	3.0
COC(=O)c1nn(-c2ccccc2)c(Cl)c1C=NOCc1ccc(C)cc1	2	5.5
Cc1cccc(NC(=S)NC(=NS(=O)(=O)c2ccccc2)c2ccccc2)c1	-7	18
Cc1ccc(S(=O)(=O)NN=Cc2cn(C)nc2C)cc1	1	3.3
Fc1ccc(C=Nc2c(-c3ccc(F)cc3)nc3n2CCS3)cc1	-6	-1.5
CC(=NNS(=O)(=O)c1ccc(Br)cc1)c1ccc(NC(=O)c2ccc(C)o2)cc1	9	-5.6
CON=C(CS(=O)(=O)c1ccc(C)cc1)c1ccc(OC)cc1	-6	9.9
O=C(NN=Cc1ccco1)c1cccc(N2Cc3ccccc3C2)c1	-16	3.8
Cc1ccc(CON=CC2=C(Cl)c3ccccc3CC2)cc1	95*	-5.6
N=c1oc2ccccc2cc1C(=O)NN=Cc1ccccc1	4	0.2
O=C(CN1CCCCCCC1)NN=Cc1ccc(F)cc1F	8	0.8
Cc1c(C=NNC(=O)c2sc3ccccc3c2Cl)cnn1C	-4	11
C=CCn1c(Cn2nnc3ccccc32)nnc1SCC(=O)NN=Cc1cc(Br)cc(OC)c1O	1	-6.9
N#Cc1ccccc1C=NNc1nc(-c2ccccc2)c2cc(Br)ccc2n1	2	2.9
CC1=C(C)C(=NOC(=O)/C=C/c2ccccc2)C=CC1=O	5	4.0
O=C(CNC(=O)c1ccccn1)NN=Cc1ccccc1	-4	-3.7
C(/C=C/c1ccccc1)=NN1CCN(c2ccccn2)CC1	-1	-0.3
